CDC25B CDK2 inh – human CDC25B-CDK2/CyclinA binding inhibition | P30305+P24941 | HTRF CDC25B-CDK2/CyclinA binding, anti-His/anti-Flag; active compounds read high | z-score (no concentration beside the values) | actives 0.72% (n = 94,000) | AID 1259370;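 further: score is relative to mean and SD of negative controls; strong numbers were not always called active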
TAR Tat displ – HIV-1 TAR-Tat binding disruption; HIV-1 TAR RNA, Tat peptide displacement FRET; active compounds read high; z-score (test concentration not listed); actives 0.6% (n = 100,000); AID 1259389;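 further: score is relative to mean and SD of negative controls; some compounds called inactive have numbers as strong as hits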
* = called active by the depositor; . = not tested or not shown.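 How the source made its calls: active means z-score from 3 up in half or more of its runs; inactive means the rest.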

SMILES	CDC25B CDK2 inh	TAR Tat displ
Cc1nn(C)cc1CN(C)C(=O)c1cc2n(n1)C(C(F)(F)F)CC(c1ccccc1)N2 (configuration not stated)	-1.64	-0.54
CCOC(=O)CC(=O)CSc1nc(C)c2ccc(C)cc2n1	-1.77	-7.56
CC(=O)Nc1nnc(S(N)(=O)=O)s1	-1.64	-0.15
S=c1[nH]nc(Cc2ccccc2)o1	-1.3	.
CSc1n[nH]c(NS(=O)(=O)c2cccc(C(F)(F)F)c2)c1-c1ccccn1	-0.76	.
CC(=O)N1CCOc2ccc(S(=O)(=O)NCC3CCC(C(=O)N4CCCC4)CC3)cc21 (configuration not stated)	.	-0.58
CCOC(=O)c1c(C)c(S(=O)(=O)N2CCc3ccccc3C2)c(C)n1CC	.	0.91
Cc1nc(Nc2ccccn2)sc1-c1ccccc1	0.61	1.41
CC(C)(CCC(=S)N1CCOCC1)C1CCCCC1	0.56	.
CCc1nnc(NC(=O)c2cc(=O)n3c(nc4ccccc43)s2)s1	.	3.75*
COC(=O)C(C)SC1=NS(=O)(=O)c2ccccc2N1 (configuration not stated)	.	1.57
CCOc1ccc(OCC)c(NS(=O)(=O)c2cc(-c3onc(C)c3C)ccc2C)c1	.	0.21
CCCc1nnc(NC(=O)CSc2nnc3c4ccccc4n(CC)c3n2)s1	0.16	2.2
O=C(Cn1cnc(S(=O)(=O)N2CCCC2)c1)N1CCN(c2ccc(F)cc2)CC1	.	1.27
N#C/C(=C\c1cc(C#Cc2ccccc2)cs1)C(=O)c1cccs1	-1.11	.
CC(C)(C)NC(=O)Nc1ccc2snnc2c1	1.92	0.47
CCCc1nc2nc(C)c(NS(=O)(=O)c3ccc(F)cc3)c(=O)n2[nH]1	-0.81	1.04
CCN1C(=O)c2cc(C(=O)NCc3ccccn3)nn2CC1(C)C(=O)NC1CCCC1 (configuration not stated)	.	-0.96
CCOC(=O)c1sc(NC(=O)CSc2cn[nH]c(=O)n2)nc1C	-0.86	0.71
CN(Cc1cc2ccccc2[nH]c1=O)S(=O)(=O)c1ccccc1	1.33	1.2

Molecules from the list above that contain fluorine (four):
SMILES	CDC25B CDK2 inh	TAR Tat displ
Cc1nn(C)cc1CN(C)C(=O)c1cc2n(n1)C(C(F)(F)F)CC(c1ccccc1)N2 (configuration not stated)	-1.64	-0.54
CSc1n[nH]c(NS(=O)(=O)c2cccc(C(F)(F)F)c2)c1-c1ccccn1	-0.76	.
O=C(Cn1cnc(S(=O)(=O)N2CCCC2)c1)N1CCN(c2ccc(F)cc2)CC1	.	1.27
CCCc1nc2nc(C)c(NS(=O)(=O)c3ccc(F)cc3)c(=O)n2[nH]1	-0.81	1.04

Next compounds.
SMILES	CDC25B CDK2 inh	TAR Tat displ
O=C(CC1=NS(=O)(=O)c2ccccc2N1)N1CCN(c2ccccc2F)CC1	.	0.93
CC(=O)N1N=C(COc2ccc(Cl)c(C)c2)OC1c1ccc(C)o1 (configuration not stated)	.	0.93
NC1=NC2(CCCC2)N=C(Nc2ccc(Cl)cc2)N1	0.58	.
Cc1ccc(-n2ncc3c(N(CCO)Cc4ccccc4)ncnc32)cc1	.	0.57
O=C(Nc1nnc(SCc2ccc(F)cc2)s1)c1csnn1	-1.82	1.78
Cc1ccc(-n2c(C)nc3sc4c(c3c2=O)CCC(C)C4)cc1 (configuration not stated)	-1.08	1.36
CN(Cc1ccccc1)C(=O)CSc1c2c(nc3ccccc13)CCC2	-1.64	.
CCOC(=O)C1=C(C)NC(C)=C(C(=O)OCC)C1c1cccnc1	-0.29	.
O=C(Nc1ccccc1SCc1cc(=O)n2ccsc2n1)c1ccco1	.	0.43
COc1cc(C2OCC3(CO2)COC(c2ccc(O)c(OC)c2)OC3)ccc1O (configuration not stated)	-0.72	.
COc1ccc(-c2nc(NCc3ccccc3OC)c3ccccc3n2)cc1	.	0.93
COc1ccc(-c2nc(SCCOc3cccc(C)c3)n3[nH]c(=O)cc3n2)cc1	.	0.45
CSCCC1NC(=O)NC1=O (configuration not stated)	-0.93	.
O=C1CCCC2=C1C(c1cccnc1)c1c(nc(SCc3ccccc3F)[nH]c1=O)N2 (configuration not stated)	-1.61	.
O=c1oc2ccccc2cc1-c1cn2c(n1)sc1ccccc12	0.26	.
CC1=C(C(=O)OCCOc2ccccc2)C(c2cccs2)C2=C(CC(c3cccs3)CC2=O)N1 (configuration not stated)	-0.97	0.56
O=C1C2C3C=CC(C2C(=O)N1c1cccnc1)C1C(=O)N(c2cccnc2)C(=O)C31 (configuration not stated)	-0.44	.
CCN(CC)C(=S)Oc1c(Cl)cccc1Cl	-1.63	.
O=C(NCc1ccccn1)C1CCN(c2nn3c(=O)c4c(nc3s2)CCCC4)CC1	.	2.14
CN(C)c1ccc(CNC(=O)C2CCC(CNc3c(N4CCCC4)c(=O)c3=O)CC2)cc1 (configuration not stated)	-2.83	2.2
N=C(N)SCc1nc(-c2ccc(Cl)cc2)no1	1.41	.
O=C(O)c1c2c(nc3ccc(S(=O)(=O)N4CCC(C(=O)N5CCCCC5)CC4)cc13)CCCCC2	-0.64	.
Cc1ccc(-c2cc3nc(C)cc(N)n3n2)cc1	-0.16	1.86
CCOc1ccc(-c2cn3nc(C(C)C)sc3n2)cc1	2.23	1.13
CCN(CC)CCN(C(=O)C1CCCCC1)c1nc2cc3c(cc2s1)OCO3	.	2.25
CCOc1ccccc1CN1CCc2nc(N3CCN(c4ccccn4)CC3)ncc2C1	.	-0.12
COc1cccc(N2C(=O)NC3CC2(C)Oc2ccccc23)c1 (configuration not stated)	0.37	.
Cc1cccc(NC(=O)c2noc3c2CCCC3)n1	.	0.71
COCCNc1ncnc2c1nc1n2CCCC1	.	-1.58
COc1ccc(NC2CC(=O)N(c3ccc(Br)cc3)C2=O)cc1 (configuration not stated)	-2.53	0.94
CCN(CC)S(=O)(=O)c1c(C)nn(S(=O)(=O)c2ccc(OC)c(C)c2)c1C	.	0.51
O=C(c1ccco1)N(c1cc2sc(=O)oc2c2ccccc12)S(=O)(=O)c1ccccc1	19.1*	1.17
CC(C)C[C@H](NC(=O)N[C@H](C(=O)N[C@@H](CCC(N)=O)C(=O)N[C@@H](C)C=O)[C@@H]1CCNC(N)=N1)C(=O)O	.	0.14
Brc1ccc(C2C=C(c3ccc4c(c3)OCO4)Nc3nnnn32)cc1 (configuration not stated)	-0.89	.
CC1(C)CC2(CCCCC2)C(=O)O1	-1.56	.
CCCCCOC(=O)C1=C(C)Nc2nnnn2C1c1ccccc1Cl (configuration not stated)	0.8	0.39
Cc1ccccc1OCc1nn2c(-c3ccccc3Br)nnc2s1	-0.65	2.3
COCCNc1cc(N2CCN(c3ccccc3)CC2)c2noc3c2c1C(=O)c1ccccc1-3	-2.17	0.06
Cc1cc(C)c2c(n1)sc1c(N3CCN(c4ccccc4)CC3)ncnc12	-0.08	.
Cc1nn(-c2ccc(N3CCCCC3)nn2)c(C)c1CCC(=O)N1CCN(C)CC1	.	-0.49

Gathered by group: the compounds so far containing an aryl thioether with sulfur outside any ring
SMILES	CDC25B CDK2 inh	TAR Tat displ
CCOC(=O)CC(=O)CSc1nc(C)c2ccc(C)cc2n1	-1.77	-7.56
CSc1n[nH]c(NS(=O)(=O)c2cccc(C(F)(F)F)c2)c1-c1ccccn1	-0.76	.
CCCc1nnc(NC(=O)CSc2nnc3c4ccccc4n(CC)c3n2)s1	0.16	2.2
CCOC(=O)c1sc(NC(=O)CSc2cn[nH]c(=O)n2)nc1C	-0.86	0.71
O=C(Nc1nnc(SCc2ccc(F)cc2)s1)c1csnn1	-1.82	1.78
CN(Cc1ccccc1)C(=O)CSc1c2c(nc3ccccc13)CCC2	-1.64	.
O=C(Nc1ccccc1SCc1cc(=O)n2ccsc2n1)c1ccco1	.	0.43
COc1ccc(-c2nc(SCCOc3cccc(C)c3)n3[nH]c(=O)cc3n2)cc1	.	0.45
O=C1CCCC2=C1C(c1cccnc1)c1c(nc(SCc3ccccc3F)[nH]c1=O)N2 (configuration not stated)	-1.61	.

Next results:
SMILES	CDC25B CDK2 inh	TAR Tat displ
Cc1cc2c(cc1S(=O)(=O)NC(C)C)OCC(=O)N2	.	0.95
Cc1nc2c3ccccc3n3c(CCCC(=O)N4CCN(c5ccccn5)CC4)nnc3n2n1	-1.46	2
CCOC(=O)c1c(N)n(-c2ccc(C)c(C)c2)c2nc3ccccc3nc12	-2.16	1.61
CCCCOc1ccc(C2=NS(=O)(=O)c3cc(S(=O)(=O)N4CCOCC4)ccc3N2)cc1	.	1.9
Cc1cc2c(c(=O)o1)C(c1ccccc1OCc1ccccc1Cl)C(C#N)=C(N)O2 (configuration not stated)	-1.57	.
O=C(c1ccco1)N1CCN(C(=O)C2CCN(c3ccc(Cl)cc3)C2=O)CC1 (configuration not stated)	.	0
CCOC(=O)C1=C(C)NC2=C(C(=O)CC(C)(C)C2)C1c1cc(Br)c(O)c(OCC)c1 (configuration not stated)	-3.37	1.57
c1cc2c(c(Nc3c4c(nc5ncnn35)CCC4)c1)CCCC2	.	0.23
Cc1nc2c(C)cccn2c(=O)c1NC(=O)c1ccc(Br)cc1	.	0.45
NC(=O)c1ccc[n+](CC(=O)Nc2ccc(C(=O)O)cc2)c1	0.03	.
CCCc1nn2c(=O)cc(COc3ccc(C)cc3)nc2s1	-2.48	1.99
COc1ccc(OC)c(N2C(=S)N(c3ccccc3)C3CS(=O)(=O)CC32)c1 (configuration not stated)	0.14	.
CCc1cc(Sc2nnc(NC(C)=O)s2)n2ncnc2n1	.	0.63
Cn1c(C2=C(O)CN(c3ccc(C(=O)O)cc3)C2=N)nc2ccccc21	-1.09	1.1
FC(F)(F)c1cccc(-n2cc(-c3ccccc3)c3c(N4CCC5(CC4)OCCO5)ncnc32)c1	-0.69	.
O=C(O)c1cnn(-c2ccccc2)c1-n1cccc1CNCCc1cccs1	-0.35	-0.09
O=C(O/N=C/c1ccc(F)c(Cl)c1)C1CC1	-2.16	.
CN1C(C(=O)Nc2ccc(F)cc2F)=CC(c2ccc(F)cc2)=NS1(=O)=O	0.45	2.02
Cc1ccc(-c2ccc(CCC(=O)O)n2Cc2ccco2)cc1	-1.79	0.58
COc1cccc(CNCCSc2nnnn2C)c1OCc1ccccc1F	-0.49	0.3
C=CCNc1nc(N)c([N+](=O)[O-])c(Nc2ccccc2F)n1	.	-0.09
COc1ccc(S(=O)(=O)NC2CCCCC2)cc1OC	-1.6	0.39
O=c1c(S(=O)(=O)c2ccccc2)cn(Cc2ccccc2F)c2ccc(F)cc12	-0.94	0.23
O=C(CN1C(=O)c2ccccc2Sc2ncccc21)N1CCC(N2CCCCC2)CC1	.	1.89
CCC(CC)c1nn2c(=O)cc(CSc3ncn[nH]3)nc2s1	.	0.36
CCOc1cccc(C(=O)c2ccc(O)c(O)c2O)c1	.	1.28
O=C(Nc1ccc2ccccc2n1)c1cccs1	-1.83	.
CC(=O)Nc1nc2c(s1)C(=O)NCC(C)(C)C2	-0.64	2.4
CC(=O)Oc1ccc2c(=O)c(Oc3ccc(Cl)cc3)c(C(F)(F)F)oc2c1	-1.08	.
O=C(C1CCN(S(=O)(=O)c2cccc3nonc23)CC1)N1CCCc2ccccc21	1.18	.
COc1cccc(C2Nc3cccc4cccc(c34)N2)c1OC	-1.91	3.46
O=C(c1ccc2c(c1)CCN2S(=O)(=O)c1ccc(Br)cc1)N1CCOCC1	-1.46	2.04
CCOc1ccc(N2C(=O)N(CC(=O)C(C)(C)C)c3ccccc3S2(=O)=O)cc1	.	0.53
Cc1cc(N2CCn3c(nc4ccccc43)C2)ccc1NS(C)(=O)=O	-0.77	-1.6
O=C(c1cccn2c(=O)c3ccc(Cl)cc3nc12)N1CCN(c2ccccc2)CC1	.	-0.1
CC(C)c1ccc(N(C(=O)C2CCCCC2)C2C=CS(=O)(=O)C2)cc1 (configuration not stated)	-2.09	-0.03
O=C(Nc1ccc(Cl)cc1)N1CCSc2ccccc21	.	0.16
Cc1ccc(C(=O)NCCCN2CCCC2=O)cc1NC(=O)C1=CSCCO1	.	1.94
O=C(Nc1ccccc1F)c1cc(-c2cccs2)on1	0.36	0.54
Cc1cc(N2CCN(C)CC2)n2nc(-c3ccc(Cl)cc3)nc2n1	-2.44	1.31
Cc1ccc(-c2c(N3CCCc4ccccc43)c(=O)c2=O)cc1	.	2.07
O=C1C(=Cc2ccc(-c3ccc(C(F)(F)F)cc3[N+](=O)[O-])o2)C(=O)c2ccccc21	-1.71	.
O=C1C=CC(=O)N1c1ccc(N2CCOCC2)cc1	0.68	.
CN(NS(=O)(=O)CS(C)(=O)=O)c1ncccc1[N+](=O)[O-]	-0.42	.
COc1ccc(C2C(C#N)=C3N=C(N)c4ccccc4N3C3=C2C(=O)CCC3)cc1 (configuration not stated)	-1.59	2.46
CCOC(=O)C1CCN(c2ccc([N+](=O)[O-])s2)CC1	.	3.46*
O=C(NCc1ccc2c(c1)OCO2)c1ccc2nc3[nH]c4ccccc4c3nc2c1	.	1.71
O=C(c1[nH]nc2c1CCc1ccccc1-2)N1CCN(c2ccc(F)cc2)CC1	.	0.09
O=C(NC1CCCC1)c1cccc(N2C(=O)CCS2(=O)=O)c1	-0.02	1.5
Cc1cc(C(=O)N/N=C/c2cc(Br)c(O)c(Br)c2)no1	-3.41	.
CC(C)Oc1ccc(CN2CCc3nc(N4CCN(c5ccccn5)CC4)ncc3C2)cc1	.	0.06
Cc1cc(-c2ccc(S(=O)(=O)NCc3ccc(F)cc3)cc2)on1	.	0.34
CC1CCN(CC2CCN(C(=O)Nc3cc(F)ccc3F)CC2)CC1	.	1.52
Cc1ccc2nc(NCC(C)c3ccccc3)c3nnnn3c2c1 (configuration not stated)	.	0.42
CNC(=O)c1c(NC(=O)c2nc(SC)ncc2Cl)sc2c1CCCC2	-1.44	-0.27
CCCNC(=O)NCc1c(-n2cccc2)sc2c1CCN(C)C2	5.19	-5.15
CCC(=O)N1c2ccccc2C(N(C(=O)c2cccs2)c2ccccc2)CC1C (configuration not stated)	-1.4	-0.07
Nc1n[nH]c2cc(=O)[nH]c(O)c12	-0.59	.
CCc1nn(CC(=O)N2CCN(c3ccc(Cl)cc3)CC2)c(=O)c2cc3occc3n12	0.11	3.7
O=S(=O)(c1cccc2nsnc12)N1CC(OCc2ccc(F)cc2)C1	.	-3.73
CN(C1CCCCC1)S(=O)(=O)c1cccc2cccnc12	-0.14	.
Cn1ncc2c(Nc3ccccc3Cl)ncnc21	.	1.25

High-throughput results: PubChem, Center for Chemical Genomics, University of Michigan
